RE007 growth inh: qHTS Assay for Inhibitors of the HIV-1 protein Vpr. S. pombe RE007 Vpr strain, BacTiter-Glo ATP luminescence, 24 h; control for the full effect not named in the record. Potency, µM (series often up to 92.2 µM), for the others: top-dose activity change, negative = less growth. 360,000 tested, 0.21% active. AID 651644, 2012; active = well fitted falling curve with a large enough effect; inconclusive = small, poorly fitted or top-dose-only effect; inactive = no such curve, though single readings can be large or run the other way;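 further: on the % scale 0 is the no-effect control and ±100 the full control effect; nearly all actives have a fitted effect of over 50% in size; the assay follows cell death caused by Vpr and the record does not say whether a fall means rescue or toxicity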
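Fission yeast RE007 carrying one integrated HIV-1 vpr copy, seeded at OD 0.01 in PMG+AL medium with 23 nL pinned compound. Grown 24 h at 30 degrees; viability read by BacTiter-Glo luminescence after 5 min.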
Cruzain noTriton: qHTS Assay for Promiscuous and Specific Inhibitors of Cruzain (without detergent). purified cruzain, Z-FR-AMC fluorescence, no detergent. 200,000 tested, 2.3% active. Potency, µM, inactives show max response, negative = inhibition, most hits filed as inhibitors; active means well fitted curve in the direction sought with a large enough effect; inconclusive means small, poorly fitted or top-dose-only effect, or another doubt; inactive means no such curve, though single readings can be large; an effect the other way counts as inactive or inconclusive;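 further: plate controls were enzyme without inhibitor for no effect and buffer without enzyme for full effect; nearly all actives have a fitted effect of over 40% in size; top concentration of the series not given in the record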
Target sequence (P25779 123-467 limits assumed): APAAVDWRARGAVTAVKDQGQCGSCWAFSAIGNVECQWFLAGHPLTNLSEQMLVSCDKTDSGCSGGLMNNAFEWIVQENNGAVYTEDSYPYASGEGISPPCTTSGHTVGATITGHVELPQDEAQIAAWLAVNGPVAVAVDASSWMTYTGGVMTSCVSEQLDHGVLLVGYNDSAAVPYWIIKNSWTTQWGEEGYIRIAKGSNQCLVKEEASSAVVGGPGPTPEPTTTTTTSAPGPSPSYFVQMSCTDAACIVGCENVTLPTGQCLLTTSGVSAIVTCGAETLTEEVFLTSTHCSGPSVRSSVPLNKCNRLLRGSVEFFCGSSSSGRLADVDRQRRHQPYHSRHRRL
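Purified cruzain at 1.5 nM, pre-incubated 15 min with compound at room temperature in 100 mM sodium acetate pH 5.5, 5 mM DTT, 0.00005% Triton X-100. Reaction started with 2 uM Z-FR-AMC; AMC fluorescence increase over 60 s gives rate.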
2A StopGo: High Throughput Screening for Foot and Mouth Disease Virus Antivirals | human cells with a luciferase reporter of 2A StopGo recoding; control for the full effect not named in the record | Potency, µM (series often up to 57.9 µM), for inactives: at the top dose signal change, negative = less light | 410,000 tested, 1.2% active | AID 1159524, 2015; active = well fitted falling curve with a large enough effect; inconclusive = small, poorly fitted or top-dose-only effect; inactive = no such curve, though single readings can be large or run the other way; tested in HEK293T cells; further: on the % scale 0 is the no-effect control and ±100 the full control effect; nearly all actives have a fitted effect of over 45% in size; luciferase light after 4 h
MARV entry inh: qHTS for inhibitors of binding or entry into cells for Marburg Virus; Marburg virus pseudotyped entry inhibition, cell reporter; control for the full effect not named in the record; about a third of the inactives were read at about 46 µM; Potency, µM (highest dose often 37.8 µM), inactives show top-dose activity change, negative = inhibition, most hits filed as inhibitors; 300,000 tested, 1.8% active; AID 540276, 2011; active = well fitted inhibition curve with a large enough effect; inconclusive = small, poorly fitted or top-dose-only effect, or effect the other way; inactive = flat fitted curve, though single readings scatter; tested in HEK293 cells; about a fifth of its hits are not listed in these tables; further: on the % scale 0 is the no-effect control and ±100 the full control effect; luciferase read-out
Cruzain inh Det: qHTS Assay for Promiscuous and Specific Inhibitors of Cruzain (with detergent); Cruzipain (Trypanosoma cruzi), P25779; AID 1478, 2009; 200,000 tested, 0.43% active; Potency, µM, for the others: max response, negative = inhibition, usual class: inhibitors; purified cruzain, Z-FR-AMC fluorescence, 0.01% Triton; active means well fitted curve in the direction sought with a large enough effect; inconclusive means small, poorly fitted or top-dose-only effect, or another doubt; inactive means no such curve, though single readings can be large; an effect the other way counts as inactive or inconclusive;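 further: plate controls were neutral wells for no effect and buffer without enzyme for full effect; nearly all actives have a fitted effect of over 40% in size; top concentration of the series not given in the record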
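Enzyme 1.5 nM, Z-FR-AMC 2 uM, NaOAc 100 mM pH 5.5, DTT 5 mM, Triton X-100 0.01%; 15 min RT compound preincubation; kinetic ex360/em450, 60 s delta.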
Lassa entry inh: qHTS for Inhibitors of binding or entry into cells for Lassa Virus; Lassa virus pseudotype entry inhibition, cell reporter; control for the full effect not named in the record; Potency, µM (top dose mostly 37.9 µM), without a hit: at the top dose activity change, negative = inhibition, most hits filed as inhibitors; 300,000 tested, 1.2% active; AID 540256, 2011; active means well fitted inhibition curve with a large enough effect; inconclusive means small, poorly fitted or top-dose-only effect, or effect the other way; inactive means flat fitted curve, though single readings scatter; tested in HEK293 cells; further: on the % scale 0 is the no-effect control and ±100 the full control effect; nearly all actives have a fitted effect of over 50% in size; luciferase read-out
NS1 inh: qHTS Assay for Inhibitors of Influenza NS1 Protein Function; Potency, µM (titrated, usually from 46.1 µM), inactives show top-dose activity, positive = more growth; 270,000 tested, 0.4% active; S. cerevisiae slowed by influenza A NS1, growth recovery by OD600; further: actives are rising curves; nearly all actives have a fitted effect of over 50% in size
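OD600 was taken as the measure of yeast growth restored by compound in an NS1-expressing S. cerevisiae strain. Cells had been washed out of glucose medium and diluted 1:100 into galactose -URA medium, pH 6.0.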
SARS PLpro yeast: qHTS of Yeast-based Assay for SARS-CoV PLP | Potency, µM (highest dose often 32.9 µM), for the others: top-dose activity, positive = growth rescue | 330,000 tested, 0.19% active | S. cerevisiae expressing SARS-CoV PLpro, growth rescue; control for the full effect not named in the record | AID 485353, 2010; further: 0% is about no effect; nearly all actives have a fitted effect of over 55% in size; growth read by luminescence after 48 h
An asterisk follows results filed as active; ? = inconclusive; . = not tested or not shown; & = joins results of further samples; [ ] = dose if it differs, or a comment. Unless noted, the call rests on the fitted dose curve; in most records, active means well fitted rising curve with a large enough effect; inconclusive means small, poorly fitted or top-dose-only effect; inactive means no such curve, though single readings can be large or run the other way. Potency means the concentration at half of the fitted maximal effect.

SMILES | RE007 growth inh | Cruzain noTriton | 2A StopGo | MARV entry inh | Cruzain inh Det | Lassa entry inh | NS1 inh | SARS PLpro yeast
CCCCCCN1C=CC=C/C1=C\C=C(C#N)C#N | -5% | . | -17% | -20%[46.1 µM] | . | -20% | -5% | 0%
COc1cc(NC(=O)CCc2c(C)nc3cc(-c4ccccc4)nn3c2C)cc(OC)c1OC | . | -2% | -22% | -12%[46.1 µM] | 0.5% | 14%[46.1 µM] | . | .
CCN1CCN(Cc2c(O)ccc3c(C)c(-c4ccccc4)c(=O)oc23)CC1 | . | -8% | 0% | . | -2.6% | -15%[46.1 µM] | . | .
COc1ccc(CCn2cc3c(c2-c2ccccc2Br)c(=O)n(C)c(=O)n3C)cc1OC | . | ? | 0% | ? | -0.6% | 0%[46.1 µM] | . | .
O=[N+]([O-])c1ccc(N/N=C/c2ccccc2)cc1 | -12% | . | 51%[activator] | ? | . | ? | -32% | -2%
Clc1ccc(CNc2ncccn2)cc1 | 7% | . | -4% | -8% | . | -8% | 2% | 1%
NS(=O)(=O)c1ccc(CCNC(=O)COC(=O)c2ccc([N+](=O)[O-])o2)cc1 | -4% | . | -6% | 4%[46.1 µM] | . | 1%[46.1 µM] | . | 0%
COc1cc(C(=O)Nc2ccc(Br)cc2C(=O)c2cc(OC)c(OC)c(OC)c2)cc(OC)c1OC | -1% | 26% | 4% | ? | -1.4% | -9% | 23% | 0%
COc1ccccc1C(=O)Nc1ccccc1C(=O)NC1CCCCC1 | -5% | . | 0% | -23% | . | 13% | -37% | 1%
COc1ccc(C)cc1S(=O)(=O)N1CCCCCC1 | -3% | . | 45%[activator] | . | . | . | -79% | -7%
c1ccc(C(=C2CCCO2)c2ccccc2)cc1 | -13% | . | -26% | 5% | . | -1% | . | .
Cc1cccc2cc(CN(Cc3ccccc3)C(=S)NCCCN(C)C)c(=O)[nH]c12 | 5% | . | -13% | 4µM* | . | -27%[46.1 µM] | 4% | -1%
CN(/N=C/c1cccnc1)c1cnc2ccccc2n1 | -21% | . | -4% | 1% | . | ? | . | -6%
COCCn1c(C)cc(C(=O)COc2ccc(C)nc2[N+](=O)[O-])c1C | -10% | . | 3.5µM* | . | . | . | 8% | -1%
Cc1c(CCOC(=O)C23CC4(C)CC(C)(CC(C)(C4)C2)C3)sc[n+]1CC(=O)c1ccccc1 | 1% | . | 28µM* | ? | . | -14% | 9% | 1%
Cc1cc(C)c2c(CC(=O)Nc3c(C(=O)Nc4ccc(Cl)cc4)oc4ccccc34)coc2c1 | . | -25% | 14% | -2%[46.1 µM] | -1.7% | -9%[46.1 µM] | . | .
Cn1c(N)c(C(=O)COC(=O)C2(c3ccccc3F)CCCC2)c(=O)n(C)c1=O | -11% | ? | -20% | 3%&3% | -7.9% | -21% | -9% | -1%
Cc1cccc(-n2c(C)cc(C(=O)C(=O)Nc3nncs3)c2C)c1 | . | -10% | 5% | ? | -2.3% | -11%[46.1 µM] | . | .
CCCc1cc(=O)n2[nH]c(NCc3ccc(OC)cc3)nc2n1 | 0% | . | 5% | ? | . | 24% | . | -1%
COc1ccc(C(=O)NC2CC(C)(C)Cc3c2cnn3-c2ccccc2C)o1 (centres undefined) | -11% | . | -15% | ? | . | ? | 20% | -3%
O=C(/C(=C/O)N=Nc1ccccc1Cl)c1ccccc1 | ? | . | ? | ? | . | -23% | . | -3%
CCCCOc1ccc(-c2c(C#N)c(N)nc(SCC(N)=O)c2C#N)cc1 | 26% | 7% | ? | ? | -10% | 4.5µM* | ? | 12%
Cc1ccccc1C(=O)Nc1nnc(CC(=O)N/N=C/c2ccco2)s1 | -3% | . | -12% | 0%[46.1 µM] | . | 7% | -9% | -2%
COc1ccc(C(=O)Nc2cccnc2Sc2ccc(Cl)cc2)cc1 | 9% | . | 22% | 2% | . | ? | -4% | 0%
O=C(c1ccc(Cl)cc1)N1N=CCC1(O)c1ccc(Cl)cc1 (centres undefined) | -2% | . | 7% | . | . | . | -6% | -9%

(more compounds)
SMILES | RE007 growth inh | Cruzain noTriton | 2A StopGo | MARV entry inh | Cruzain inh Det | Lassa entry inh | NS1 inh | SARS PLpro yeast
CCSc1nnc2nc3[nH]c4c(C)cccc4c3nn12 | -11% | . | 41%[activator] | ? | . | 4%[46.1 µM] | . | 5%
O=C(Nc1ncc(Cc2cccc(Cl)c2Cl)s1)c1ccc([N+](=O)[O-])cc1 | 0% | -22% | ? | ? | 3.5% | -4% | ? | -9%
CC(C)C(C(=O)NC1CCCC1)N(CC1CCCO1)C(=O)CNS(=O)(=O)c1ccccc1 (centres undefined) | -12% | . | -4% | -11%[46.1 µM] | . | 25%[46.1 µM] | 8% | 0%
COc1ccc(OC)c(NC(=S)N2CCN(c3ccccn3)CC2)c1 | -11% | -12% | 15% | -2%[46.1 µM] | 2.3% | ? | -2% | -19%
Cc1[nH]nc(-c2ccc(OCc3cnn(-c4ccccc4)c3)c(C)c2O)c1Oc1ccccc1 | 0% | 13µM* | ? | -31% | 8.2% | ? | 2% | -2%
CC(C)c1ccc(N=C2N=C(N)c3ccccc32)cc1 | -7% | . | -25% | ? | . | ? | -7% | -2%
Cc1cccc(NS(=O)(=O)c2cc(C(=O)N3CCOCC3)ccc2Cl)c1 | 11% | . | 16% | ? | . | -5%[46.1 µM] | . | 1%
COc1ccc(CNC(=O)/C=C/C(=O)O)cc1 | -19% | . | -6% | . | . | . | -1% | -3%
O=C1c2ccccc2NC(c2cccc(F)c2)N1Cc1ccccc1 (centres undefined) | 18% | . | -14% | . | . | . | -5% | -5%
COc1ccccc1S(=O)(=O)n1cc(Cc2ccccc2)c(N)n1 | 13% | -9% | 1% | 4% | -3.7% | -1% | ? | 4%
COc1ccc(C(=O)Nc2cc(OC)cc3cccnc23)cc1 | 3% | . | 16% | . | . | . | -11% | 0%
Cc1cc(NC(=O)CCSc2nc(-c3ccco3)cc(C(F)(F)F)n2)n(-c2ccccc2)n1 | 9% | ? | ? | ? | -10% | ? | 12% | 7%
Cc1ccc(SC(C)C(=O)N2CCC(C(N)=O)CC2)cc1 (centres undefined) | 20% | . | 11% | -5%[46.1 µM] | . | ? | 1% | 1%
CCCC(=O)Nc1ccc(C(=O)NNC(=S)NC(=O)c2ccc(Br)o2)cc1 | 18% | . | -13% | -25%[46.1 µM] | . | ? | . | -1%
CCOC(=O)N1CCC(NC(=O)c2ccc3c(c2)N(C)CCS3)CC1 | -3% | 5% | -21% | 7% | -6.3% | -19% | -2% | 3%
O=C(Nc1ccc2c(c1)OCO2)c1cccs1 | ? | -24% | 34%[activator] | ? | 4.1% | ? | -40% | .
CCOC(=O)c1ccc(CNC(=O)CSc2nnnn2-c2ccc(Cl)cc2)o1 | -8% | 4% | 9% | -25% | -3.2% | 22% | -40% | 5%
COC(=O)c1ccc(OC)cc1OCC(=O)N1CCN(c2ccc(F)cc2)CC1 | 7% | 11% | -25% | ? | 2.4% | -18% | -6% | -21%
COc1ccc2nc(/N=C/c3c(C)[nH]n(-c4ccc(C)cc4C)c3=O)sc2c1 | -22% | 8% | 14% | 5% | 1.9% | 16% | 0% | -18%
CCCCN(C(=O)CSc1nnnn1-c1ccccc1OC)C1CCS(=O)(=O)C1 (centres undefined) | 1% | . | -14% | 12% | . | 7% | . | 0%
Cc1nc2ccc([N+](=O)[O-])cc2c(=O)n1Cc1ccc([N+](=O)[O-])cc1 | 6% | . | -7% | . | . | . | -3% | -6%
Cc1ccc(CN2CCNC(=O)C2CC(=O)NCCCn2cccn2)o1 (centres undefined) | -2% | . | 10% | 1%[46.1 µM] | . | -13%[46.1 µM] | 2% | 1%
O=C(c1ccc(CS(=O)(=O)c2ccc(Br)cc2)o1)N1CCCCCC1 | -6% | 8% | -11% | 0% | 5.3% | . | -8% | 2%
Oc1oc(-c2ccccc2)nc1/C=N/c1nccs1 | 9% | ? | -6% | 43% | 4.8% | 0% | -7% | -22%
Cc1nc2nc(CNC(=O)OC(C)(C)C)nn2c(C)c1CCC(=O)NCc1ccc(F)cc1 | . | 7% | 2% | ? | -0.5% | 8%[46.1 µM] | . | .

(next part)
SMILES | RE007 growth inh | Cruzain noTriton | 2A StopGo | MARV entry inh | Cruzain inh Det | Lassa entry inh | NS1 inh | SARS PLpro yeast
C(=N/Nc1nccs1)/c1cccnc1 | -17% | . | 6% | ? | . | -2%[46.1 µM] | . | -1%
COc1cccc(OC)c1NC(=O)Cn1nc(C)c2ccccc2c1=O | 4% | . | 4% | ? | . | 17% | 13% | 17%
COc1ccc(C2=NOC(C(=O)NCCN3CCOCC3)C2)cc1 (centres undefined) | -5% | 1% | -4% | 6% | 5.5% | -2% | 1% | -3%
CN1CCN(c2ccc(NC(=O)COc3ccccc3[N+](=O)[O-])cc2)CC1 | -3% | . | -4% | ? | . | 0% | 2% | 1%
CCN(CC)c1ncnc2c1cnn2-c1cc(Cl)ccc1C | . | -4% | 0% | . | 0.9% | ? | . | .
CCOc1ccc(OCC(=O)Nc2cccc(S(=O)(=O)NC3=NCCC3)c2)cc1 | -15% | . | 15% | ? | . | ? | . | .
O=c1c2c3nc4ccccc4nc3n(/N=C/c3ccco3)c2ncn1CCC1=CCCCC1 | -16% | -8% | . | ? | -4.1% | 3% | -30% | 2%
CC(C)CCN1C(=O)c2ccccc2CC1(C)C(=O)NC1CCC(C)CC1 (centres undefined) | . | 2% | -8% | 0%[46.1 µM] | 2.9% | . | . | .
CCc1cc(=O)oc2c3c(cc(OCC(=O)N[C@H](C(=O)O)[C@H](C)CC)c12)OC(C)(C)CC3 | 9% | . | 14% | -2%[46.1 µM] | . | 0%[46.1 µM] | 13% | 3%

Screening data (PubChem BioAssay)
